# Compound activity: PubChem, National Center for Advancing Translational Sciences (NCATS)
# Vaccinia Venus: qHTS for Stage-Specific Inhibitors of Vaccinia Orthopoxvirus: Venus Reporter Primary qHTS; Potency, µM (series often up to 36.5 µM), for the others: at the top dose activity change, negative = inhibition, usual class: inhibitors; 0.46% of 330,000 active; Vaccinia virus Venus reporter expression, fluorescence; active means well fitted inhibition curve with a large enough effect; inconclusive means small, poorly fitted or top-dose-only effect; inactive means no such curve, though single readings can be large or run the other way; tested in A549 cells; further: nearly all actives have a fitted effect of over 30% in size; inactives centre near -10
# VACV mCherry inh: qHTS for Stage-Specific Inhibitors of Vaccinia Orthopoxvirus: mCherry Reporter Primary qHTS. Vaccinia virus mCherry reporter infection, fluorescence; about a quarter of the inactives have no number. Potency, µM (highest dose often 36.5 µM), for the others: at the top dose activity change, negative = inhibition, usual class: inhibitors. 0.63% of 310,000 active; active = well fitted inhibition curve with a large enough effect; inconclusive = small, poorly fitted or top-dose-only effect; inactive = no such curve, though single readings can be large or run the other way; tested in A549 cells; further: nearly all actives have a fitted effect of over 35% in size; inactives centre near -10
# * = called active by the depositor; i = inactive; ? = inconclusive; · = no result given; [ ] = remark or other dose. On the % scale 0 is the no-effect control and ±100 the full control effect; potency means the concentration at half of the fitted maximal effect.
SMILES,Vaccinia Venus,VACV mCherry inh
Cc1cc(N2CCC(C)CC2)nc2ccc(NC(=O)CCC(=O)N3CCN(c4cccc(C(F)(F)F)c4)CC3)cc12,?,-24%
CCN(CC)CCCNC(=O)c1nn(-c2ccc(C)cc2)c(=O)c2c1c1ccccc1n2C,3%,13%
Cc1ccc(N2C(=O)CC(NNc3nc4ccccc4s3)C2=O)cc1 (configuration not stated),-22%,-23%
Fc1ccc(C(Nc2ccccc2Cl)c2nnc(-c3ccccc3Cl)o2)cc1 (configuration not stated),-2%,-2%
CCC(C)NC(=O)c1ccccc1C(=O)NC(C)CC (configuration not stated),-5%,-14%
COC(=O)c1cccc(NS(=O)(=O)c2ccc(OC)c(C(=O)N3CCOCC3)c2)c1C,-9%,1%
CN(C)/C=C/C(=O)c1ccc(N2CCN(c3ncc(C(F)(F)F)cc3Cl)CC2)cc1,-20%,·
CCC(C(=O)Nc1ccccc1F)N1C(=O)CN=C(c2ccccc2)c2ccccc21 (configuration not stated),-17%,-18%
CC(C(=O)Nc1ccccc1-c1ccccc1)N1CCN(S(=O)(=O)c2ccccc2)CC1 (configuration not stated),-5%,-28%
CC(=O)c1cccc(-c2cnc3c(NC=O)cc(-c4ccc(F)cc4)cn23)c1,-23%,?
Cc1ccc([N+](=O)[O-])cc1NC(=O)c1c(-c2ccccc2)noc1C,-19%,-5%
CCC(C)Nc1sc(S(=O)(=O)CC)nc1S(=O)(=O)c1ccc(C)cc1 (configuration not stated),-16%,-3%
CCC(C)C(=O)Nc1cc(C(=O)OC)ccc1C(=O)OC (configuration not stated),0%,i
COc1ccc(C(c2nnnn2-c2ccc3c(c2)OCCO3)N2CCN(C/C=C/c3ccccc3)CC2)cc1 (configuration not stated),-10%,-2%
Cc1ccc(NC(=O)N2CCN3CCCCC3C2)cc1C (configuration not stated),-1%,-1%
COc1ccc(S(=O)(=O)N2CCOCC2)cc1NC(=O)Cc1coc2cc(C)ccc12,-4%,-10%
Nc1nc(CSc2nc3ccccc3[nH]2)cs1,-10%,-9%
CC(C)OCCCNC(=O)c1ccc(NC(=O)C2=CSCCO2)cc1,-6%,-12%
Cc1ccc(NC(=O)c2nnn(CC(=O)Nc3ccccc3)c2N)cc1C,-21%,-12%
CCOC(=O)c1c(C)nc2ncccn12,-5%,-11%
O=C1C2C3C=CC(C3=C3CCCCC3)C2C(=O)N1c1ccccc1 (configuration not stated),-5%,·
Cc1ccccc1-c1ccc2c(c1)CNCc1cnnn1-2,-2%,3%
Cc1cccc(C(=O)Nc2nc3c(s2)CCCC3)c1,-11%,1%
CCN(CC)C(=O)c1sc(NC(=O)c2cccc([N+](=O)[O-])c2)c(C#N)c1C,-2%,-18%
O=C(NCc1cccs1)Nc1cc(Cl)ccc1Cl,-20%,i
COc1ccc(-n2cnc3scc(-c4ccccc4)c3c2=O)cc1,-8%,i
COc1ccc(C(=O)NCc2nc(C)c(C)s2)cc1OC1CCN(C(C)C)CC1,-16%,-2%
COn1cnnc1-c1ccccc1,-10%,·
O=C(c1ccccc1)c1nn(-c2ccccc2)c(=O)cc1C(F)(F)F,-27%,·
CC(C)NC(=O)C1(C)CCN1Cc1ccc(C(F)(F)F)cc1 (configuration not stated),0%,i
CCOc1ccc(NC(=S)NC(=O)c2cncc(Br)c2)cc1,-14%,i
COc1cccc(CN2CCC3(CCC(CNC(=O)c4cc(C)nn4C)O3)CC2)c1OC (configuration not stated),1%,-4%
O=C(CSc1ncnc2sccc12)Nc1ccccc1F,6%,-1%
O=C(N/N=C/C=C/c1ccco1)c1cccnc1,-13%,-9%
O=C(N/N=C/c1ccc2c(c1)OCO2)C(=O)N1CCCC1,0%,i
C=CCNc1cc(=O)n(Cc2ccccc2)c(=O)[nH]1,-12%,i
CCOc1ccc(-c2cc(C(=O)NCCc3ccc(OC)c(OC)c3)c3c(-c4ccc(F)cc4)[nH]nc3n2)cc1,?,?
C[C@@H]1CN([C@H](C)CO)C(=O)CCCn2nncc2CO[C@@H]1CN(C)S(=O)(=O)c1ccc(Cl)cc1,5%,-6%
O=C(Cc1ccccc1)Nc1ccccc1C(=O)Nc1ccccc1,-8%,-4%
CC(=O)c1cccc(NC(=O)CSc2nnc3ccc(-c4ccc(F)cc4)nn23)c1,-11%,i
O=C(Nc1ccccc1)OC1CC2CC1C1CCCC21 (configuration not stated),-5%,-9%
Cc1ccccc1OCCCC(=O)Nc1nncs1,-13%,-12%
CCOc1ccc(N2C(=O)CC(N(Cc3ccco3)C(=O)CCC(=O)O)C2=O)cc1 (configuration not stated),-3%,i
Cn1c(COc2ccc(Cl)cc2)nc2ccccc2c1=O,-15%,?
COC(=O)C1=C(C)OC(N)=C(C#N)C1C1CCCCC1 (configuration not stated),-8%,i
O=[N+]([O-])c1ccc(-c2cn(-c3ccccc3)c(=S)[nH]2)cc1,-16%,-3%
Cc1ccc(OCCNC(=O)CCNS(=O)(=O)c2ccc(Br)cc2)cc1,-18%,-29%
CCc1c(C)[nH]n(-c2nc(-c3cccc([N+](=O)[O-])c3)cs2)c1=O,5%,i
CNC(=O)c1ccc(CNC(=O)OCc2ccccc2)cc1,0%,-7%
O=C(CSc1cccc[n+]1[O-])Nc1ccccc1C(F)(F)F,-12%,-18%
Cc1ccc2[nH]c(CSc3nnc(NC(=O)c4ccccc4C)s3)cc(=O)c2c1,-22%,-7%
Cc1ccc(Nc2c3c(nc4nncn24)CCC3)c(C)c1,-11%,-17%
COc1ccc(NC(=O)Cn2c(=O)oc3cc(S(=O)(=O)NC4CCCC4)ccc32)cc1OC,0%,4%
CCC1CCCCN1CC(C)(C)NS(=O)(=O)c1ccccc1 (configuration not stated),-7%,-5%
CC(=O)c1ccccc1NC(=O)COC(=O)/C=C/c1ccc(C)o1,-5%,i
Cc1nc(Cc2nnc(SCC(=O)N3c4ccccc4NC(=O)C3(C)C)o2)cs1,-12%,-5%
C=CCn1nc(C(=O)N2CCOCC2)cc1-c1sc(NC(=O)c2ccccc2)nc1C,?,?
CC1(C)CC2CC(C)(CN2C(=O)c2cc(-c3ccccc3)on2)C1 (configuration not stated),-6%,-12%
CC(=O)Nc1ccc(S(=O)(=O)N[C@@H](C)C(=O)N2CCN(c3ccccn3)CC2)cc1,-2%,-9%
COc1ccc(C2CC(C(F)(F)F)n3nc(C(=O)Nc4ccc5c(c4)OCO5)cc3N2)cc1 (configuration not stated),-25%,-24%

# Remaining list, next part
SMILES,Vaccinia Venus,VACV mCherry inh
COc1cc(OC)c(OC)cc1/C=N/NC(=O)c1cnccn1,-9%,-1%
O=C(Nc1ccccc1)N1CCC(C(=O)N2CCN(Cc3ccccc3)CC2)CC1,-11%,-17%
COc1ccc(C2=NN(CCC(=O)NCC3CCCO3)C(=O)CC2)cc1 (configuration not stated),-13%,i
CC(C)(C(=O)N1CCC1(C)C(=O)Nc1ccccc1Br)c1ccccc1 (configuration not stated),-4%,25%
Cc1nc(SCC(=O)Nc2nsc(-c3ccc(C(C)(C)C)cc3)n2)c2c3c(sc2n1)CCCC3,0%,-13%
O=C(NC(=S)Nc1ccc(Cl)cc1)c1cncc(Br)c1,0%,1%
Cc1ccc(OCCNC(=O)c2ccco2)cc1C,1%,·
Cc1ccc(C(=O)Nc2nc3n(n2)C(c2ccccc2)C=C(c2ccccc2)N3)cc1 (configuration not stated),-7%,-3%
CCOc1ccc(CNC(=O)CCn2c(=O)c3cccn3c3cccnc32)cc1,-2%,-2%
Cc1ccc(NC(=O)CC(C(=O)O)c2ccccc2)cc1 (configuration not stated),-13%,-13%
Cn1nc(C(=O)NCc2ccc(Cl)cc2)c2c1-c1ccccc1S(=O)(=O)C2,-10%,-2%
COC(=O)Nc1csc2c1NC(=O)CCCC2,5%,-13%
NC(=O)c1ccccc1OCc1cccc2ccccc12,-13%,-15%
CC1Sc2ccc(S(=O)(=O)N3CCC(C(=O)NCCc4ccccc4)CC3)cc2NC1=O (configuration not stated),-15%,-13%
O=c1[nH]c(C2CCCN(S(=O)(=O)c3ccc(F)cc3)C2)nc2c1nnn2Cc1ccc(F)cc1 (configuration not stated),5%,-17%
CN1CCC(NC(=O)Nc2cccc(C(F)(F)F)c2)CC1,-18%,-25%
O=C(O)CCc1ccc(S(=O)(=O)Nc2ccccc2C(=O)NCCc2ccccc2)cc1,-7%,-17%
CCOC(=O)C1(C)C=C(Nc2ccc(C)cc2)C(=O)N1c1ccccc1 (configuration not stated),7%,-9%
O=C(c1cc(-c2ccc(Br)cc2)nc2ccccc12)N1CCN(c2ccccc2O)CC1,?,14µM*
CCOCCCNC(=O)/C(C#N)=C/c1ccc(Cl)c([N+](=O)[O-])c1,3%,6%
COc1ccc(N2CCN(C(=O)C(C)(C)Oc3ccc(Cl)cc3)CC2)cc1,-19%,?
CC(C)CC(=O)Nc1ccccc1N1CCN(c2ccccc2)CC1,4%,-22%
CCc1ccc(NC(=O)[C@H](CSCc2ccccc2)N2Cc3ccccc3C2=O)cc1,-3%,-8%
CCOc1ccc(C2Nc3ccc4ccccc4c3-c3c2c(=O)oc2ccccc32)cc1 (configuration not stated),-5%,-11%
Nc1nc(N)nc(-c2ccccc2)n1,-4%,-2%
COc1ccccc1NC(=O)CSc1nc(=O)n(CCN2CCOCC2)c2c1CCC2,-16%,-3%
Cc1ccc(C)c2[nH]c(=O)c(C(c3nnnn3C(C)(C)C)N3CC=C(c4ccc(F)cc4)CC3)cc12 (configuration not stated),-27%,?
CC(C)Cc1cc(C(=O)N2CCC(N3CCC(C(=O)N4CCCC4)CC3)CC2)n[nH]1,-7%,6%
CC1(C)C(=O)Nc2ccccc2N1C(=O)CSc1nnc2c(Cl)cc(Cl)cn12,-15%,i
COc1ccccc1CCC(=O)Nc1ccc2c(c1)c(=O)n(C)n2Cc1cccc(C(F)(F)F)c1,-15%,?
COc1ccc(S(=O)(=O)N(C)CC(=O)NCCCN2CCOCC2)cc1C,-21%,?
CCn1c(=S)sc2c(=O)n(CC(=O)Nc3ccc(Cl)cc3)c(C)nc21,-5%,-10%
O=[N+]([O-])c1cccc(OCc2cn3cccnc3n2)c1,-6%,-4%
O=C(C(Cc1ccccc1)N1C(=O)C2C3C=CC(C3)C2C1=O)N1CCCCCC1 (configuration not stated),6%,0%
CC(=O)Nc1ccc(S(=O)(=O)NC(C)(C#N)C2CC2)cc1 (configuration not stated),2%,-7%
O=C(O)c1cc(N2C(=O)C=CC2=O)cc(N2C(=O)C=CC2=O)c1,-19%,-19%
COc1cccc(NS(=O)(=O)c2ccc3c(c2)n(C)c(=O)n3C)c1,-17%,-21%
O=C(CCCCCn1c(=O)[nH]c2ccsc2c1=O)NCc1ccccc1,-2%,-10%
O=C(CSc1nnc(-c2ccccc2Cl)n1Cc1ccco1)Nc1ccc2c(c1)OCCO2,-15%,i
Cc1occc1C(=O)N1CCN(c2ccc(Cl)c(Cl)c2)CC1,-13%,-15%
CCOC(=O)C1(CCc2ccccc2)CCN(C(=O)C2=C(C)OCCO2)CC1,-5%,-14%
O=C(NCc1ccccc1)c1cc(C2COCCN2S(=O)(=O)c2ccccc2)on1 (configuration not stated),-8%,0%
O=C(CSc1nc2ccccc2c(=O)n1-c1ccc(F)cc1)Nc1ccc(C(=O)O)cc1,5%,-10%
O=C(Cn1c(=O)oc2ccccc21)Nc1ccc(S(=O)(=O)N2CCCCC2)cc1,-10%,-17%
O=C(NC1CCN(Cc2ccccc2)CC1)c1ccc(Cn2c(=O)c3ccccc3n(Cc3cccc(F)c3)c2=O)cc1,?,?
Cc1sc2ccccc2[n+]1CCC(C)S(=O)(=O)[O-] (configuration not stated),-11%,i[1.46 µM]
Cc1cc(C)cc(NC(=O)c2nnn(Cc3cccc(Br)c3)c2N)c1,-10%,-11%
COc1ccc(C(=O)NCCc2cccc(Cl)c2)cc1OC1CCN(C(C)=O)CC1,-24%,-16%
O=[N+]([O-])c1ccccc1S(=O)(=O)Nc1cccc(-c2ccc(N3CCOCC3)nn2)c1,-8%,-19%
CCNS(=O)(=O)c1c(C)cc(C)c(N(C)S(=O)(=O)c2ccccc2)c1C,0%,-8%

# Compounds as they come; 0.86% or so of the library scored in one or more.
